Assay outcomes deposited in PubChem by National Center for Advancing Translational Sciences (NCATS).
VDR inhibitor = Inhibitors of the vitamin D receptor (VDR): qHTS | Vitamin D3 receptor (Homo sapiens), P11473 | VDR-SRC2-3 peptide fluorescence polarization, 2 h | Potency, µM, without a hit: max response, negative = inhibition, most hits filed as inhibitors | actives 0.93% (n = 400,000); active = well fitted inhibition curve with a large enough effect; inconclusive = small, poorly fitted or top-dose-only effect, or another doubt; inactive = no such curve, though single readings can be large or run the other way; note: series mostly up to about 120 µM
Target sequence (P11473 whole entry, looked up): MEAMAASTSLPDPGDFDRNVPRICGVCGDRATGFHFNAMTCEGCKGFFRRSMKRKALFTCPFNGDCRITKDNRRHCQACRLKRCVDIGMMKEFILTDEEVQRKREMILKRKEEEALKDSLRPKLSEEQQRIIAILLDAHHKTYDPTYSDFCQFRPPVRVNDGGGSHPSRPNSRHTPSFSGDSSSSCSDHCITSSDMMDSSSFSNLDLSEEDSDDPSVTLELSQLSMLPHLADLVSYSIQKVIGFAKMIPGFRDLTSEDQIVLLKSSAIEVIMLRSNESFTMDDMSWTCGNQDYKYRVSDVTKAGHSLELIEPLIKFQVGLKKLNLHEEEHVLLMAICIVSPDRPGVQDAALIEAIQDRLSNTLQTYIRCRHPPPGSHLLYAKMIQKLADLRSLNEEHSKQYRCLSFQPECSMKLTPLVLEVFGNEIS
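FP read-out; VDR + SRC2-3 coactivator peptide; 23 nl compound by pintool; 2 h RT incubation; reagents held at 4 deg C, protected from light.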
Starred values were filed as active, the others as inactive; ? = inconclusive; & = joins results of further samples. % is set by controls: 0 for no effect and ±100 for the full control effect; potency is the fitted concentration of half-maximal effect.

| Molecule | VDR inhibitor |
| --- | --- |
| COc1ccc(N2CC(NC(=O)CCCc3ccccc3)CC2=O)cc1 (stereo not drawn) | 13.5% |
| Cc1cc(CNC(=O)C2CCC(=O)N(CCc3ccc(Cl)cc3)C2)no1 (stereo not drawn) | -8.2% |
| COc1ccc(C/C(=N\OC(C)=O)c2ccc(OC)cc2)cc1 | 24.9% |
| COc1nc(NCCN2CCOCC2)nc(Nc2ccc([N+](=O)[O-])cc2)n1 | -5.5% |
| COc1cccc(CNC(=O)N2CCN(S(=O)(=O)c3ccc(Cl)cc3)CC2)c1 | 1.3% |
| O=C1OC(=O)C2C1[C@@H]1CC[C@H]2O1 (stereo partly drawn) | -4.1% |
| COc1cc(C(=O)Nc2sc3c(c2C(=O)NCc2ccco2)CCCC3)cc(OC)c1OC | -4.8% |
| Cc1nc(-c2noc(-c3ccccc3Cl)n2)c(C(F)(F)F)o1 | -12.5% |
| COc1cc(C(=O)Nn2c(CC(C)C)nc3ccccc3c2=O)cc(OC)c1OC | 2.6% |
| CCC(C)(C)n1nnnc1C(C(C)C)N(CCN1CCOCC1)Cc1cc2cccc(C)c2[nH]c1=O (stereo not drawn) | 2.8% |
| Cc1ccc(S(=O)(=O)c2nc(-c3cccc(C)c3)oc2N2CCCCC2)cc1 | 2.7% |
| Cc1ccccc1Nc1c(-c2ccc(Cl)s2)nc2ccccn12 | -9.0% |
| COc1ccc(NC(=O)c2cc(S(=O)(=O)N3CCOCC3)ccc2C)cc1S(=O)(=O)N1CCOCC1 | 2.0% |
| CSCCC(NS(=O)(=O)c1ccc2ccccc2c1)C(=O)O (stereo not drawn) | -7.2% |
| C=CCNC(=O)N1CCC(CO)(Cc2ccc(Cl)cc2)CC1 | 20.9% |
| O=C(Cc1ccc(Br)cc1)Nc1cccc(Cl)c1 | 18.8% |
| COc1ccc2c(CC(=O)NCCN3C(=O)S/C(=C\c4cccnc4)C3=O)coc2c1 | -7.0% |
| CC1=C(C(=O)Nc2ccc(Br)cc2)C(c2ccco2)NC(=O)N1 (stereo not drawn) | -11.3% |
| CCC(=O)c1cn(/C(=C\C(=O)OC(C)(C)C)CCC(OC)OC)cc1CC | -15.2% |
| COc1ccc(NC(=O)c2cc(C)cc(C)c2)cc1S(=O)(=O)N1CCCCC1 | -2.2% |

Part of the list above in a different format:
> COc1ccc2c(CC(=O)NCCN3C(=O)S/C(=C\c4cccnc4)C3=O)coc2c1
- VDR inhibitor: -7.0%

> Cc1ccccc1Nc1c(-c2ccc(Cl)s2)nc2ccccn12
- VDR inhibitor: -9.0%

Further entries:
| Molecule | VDR inhibitor |
| --- | --- |
| CC1CCCCN1C(=O)CN1C(=O)CN(C)C(=O)c2ccccc21 (stereo not drawn) | 5.7% |
| COc1cc(OC)cc(C(=O)NCC(=O)NCCN2C(=O)S/C(=C\c3ccccc3Cl)C2=O)c1 | -11.4% |
| O=C(CN1c2ccccc2S(=O)(=O)c2ccccc21)Nc1ccccc1Cl | 1.6% |
| CC(=O)Oc1ccc2c3c(c(=O)oc2c1)CCCC3 | -16.1% |
| Nc1nc(-c2ccccn2)nc(N)c1Cc1ccc(Cl)cc1Cl | 19.5% |
| O=C(Cn1cccc1)N1CCN(C(c2ccccc2)c2ccccc2)CC1 | 1.9% |
| CCOc1cc(C(=O)Nc2nnc3n2CCS3)cc(OCC)c1OCC | -8.0% |
| CCOc1ccc(S(=O)(=O)NC(C)C)cc1C(N)=O | 16.4% |
| COc1ccccc1-n1c(=O)oc2ccc(Cl)cc2c1=O | 17.2% |
| CCCCn1c(NCc2ccc(OC)cc2O)nc2ccccc21 | -17.8% |
| CS(=O)(=O)c1ccc(CNC(=O)C2(C(F)(F)F)C/C(=C/CCO)CCCO2)cc1 (stereo not drawn) | -23.5%&1.3% |
| O=C(Nc1nccs1)C1CCN(S(=O)(=O)c2ccc(F)cc2)CC1 | 7.1% |
| COc1ccc(/C=C/C(=O)c2ccc([N+](=O)[O-])o2)cc1 | -16.0% |
| O=C(O)c1cccc(Cn2c(Cl)c(/C=N/NC(=O)c3ccco3)sc2=O)c1 | -0.7% |
| Cc1ccc(OCC(=O)Nc2c(Cl)ccc3nsnc23)cc1C | 1.6% |
| CCCCOc1ccc(S(=O)(=O)n2nc(C)c(S(=O)(=O)N3CCC(C)CC3)c2C)cc1 | 4.8% |
| Cc1ccc(Nc2nc(C)nc3c2oc2ccccc23)cc1 | 0.6% |
| Cc1nc2ccccc2n1CC(O)Cn1c2ccccc2c2ccccc21 (stereo not drawn) | 29.1% |
| CCOC(=O)N1CCN(C(=O)CSc2ccc3nnc(CCNC(=O)c4ccccc4)n3n2)CC1 | -7.7% |
| CC(=O)c1cc2c(C)c(C(=O)c3ccccc3)oc2cc1O | -2.4% |
| CCCC[n+]1ccn(-c2nc3ccccc3nc2[N-]S(=O)(=O)c2ccccc2)c1 | 19.1% |
| CC1=C(c2ccc(C)cc2)S(=O)(=O)N=C1N1CCN(c2ccccc2)CC1 | 4.7% |
| O=C(Nc1cccc(NC(=O)C2CC2)n1)C1CC1 | -11.6% |
| CCOc1cccc2cc(-c3nnc(NCc4ccco4)s3)c(=O)oc12 | ? |
| Cc1cccc(NC(=S)N2CCCCC2)c1 | 4.4% |
| CCN(CC(=O)Nc1cccc(OC)c1)C(=O)c1cccc(S(=O)(=O)N2CCc3ccccc32)c1 | 6.9% |
| CCCCC(=O)NC(=S)NNC(=O)c1ccc(Cl)cc1Cl | ? |
| COc1ccc(C(=O)N2CCC(C(=O)Nc3ccc4c(c3)OCCO4)CC2)cc1 | -3.1% |
| C=CCOc1ccc(CN(C)C(=O)CN2C(=O)c3ccccc3C2=O)cc1 | 4.8% |
| Cc1cc(CNC(=O)COc2cc(F)ccc2[N+](=O)[O-])c2ccccc2n1 | 5.0% |
| CC(C)(C)c1csc(NC(=O)Nc2ccccc2)n1 | -4.8% |
| Cc1ccc(N2CCN(C(=O)CCS(=O)(=O)c3cc4c(cc3Cl)NC(=O)CO4)CC2)c(C)c1 | 6.0% |
| CCC(C(N)=NCCc1ccc(OC)c(OC)c1)c1ccccc1 (stereo not drawn) | -1.1% |
| COc1ccc(CCNC(=S)NCCc2c[nH]c3ccccc23)cc1 | -0.5% |
| Cc1ccc(N(C(=O)Cn2nnc(-c3ccc(F)cc3)n2)C(CC(C)C)C(=O)NCC2CCCO2)cc1 (stereo not drawn) | 0.3% |
| CC(C)Oc1ccc(C(=O)Nc2cc(S(=O)(=O)N3CCOCC3)ccc2N2CCOCC2)cc1 | -14.7% |
| COc1cccc(CN2CCc3ccc(NC(=O)CCc4ccc(C)cc4)cc3C2)c1O | -6.1% |
| O=C1NC2=C(C(=O)CCC2)C(c2ccc(OC(F)F)cc2)N1 (stereo not drawn) | -5.2% |
| C/C(CC(=O)Nc1ccc(Cl)cc1Cl)=N\NC(=O)C(=O)NCCO | -14.9% |
| O=C(Cn1nnc(-c2cccc(C(F)(F)F)c2)n1)NC1CCCC1 | 2.0% |
| NC(=O)c1ccsc1NC(=O)c1ccc(S(=O)(=O)N2CCCCC2)cc1 | -0.8% |
| CC(C)(C)NS(=O)(=O)c1ccc2nc(NC(=O)Cc3cccs3)sc2c1 | -13.6% |
| CCOc1ccc(NC(=O)C(C)Sc2nc3ncccc3o2)cc1 (stereo not drawn) | 3.1% |
| COc1cccc(-c2nn(-c3ccc(C)cc3)cc2C(=O)N2CCc3cc(OC)c(OC)cc3C2)c1 | -23.1% |
| COc1cc2c(cc1OC)C(C)=NC1(CCCCC1)C2 | -2.4% |
| Cn1ccnc1C1CCCCN1Cc1nc(-c2ccc3c(c2)OCO3)no1 (stereo not drawn) | 8.7% |
| CN(CC(=O)Nc1ccc(F)cc1)C(=O)COc1ccc([N+](=O)[O-])cc1Cl | 5.3% |
| O=C(Nc1c(Cl)cccc1Cl)C1CCC1 | -17.4% |
| Cc1nc(NC(=O)CC(C)C)sc1-c1csc(Nc2ccc(Cl)cc2)n1 | 18.0% |
| Cc1ccc(CS(=O)(=O)c2ccccc2-c2nnc(-c3ccc(Cl)cc3)o2)cc1 | 14.1% |

Additional entries:
| Molecule | VDR inhibitor |
| --- | --- |
| O=C(c1ccc(S(=O)(=O)Nc2ccccc2Cl)cc1)N1CCOCC1 | 12.5% |
| Cc1cccc(N=C(N2CCOCC2)P(=O)(N2CCOCC2)N2CCOCC2)c1 | 6.3% |
| O=C(CSc1nc2c([nH]c3ccccc32)c(=O)n1-c1cccc(Cl)c1)c1ccccc1 | 2.9% |
| O=C(COC(=O)c1n[nH]c(=O)c2ccccc12)NC1CCCCC1 | 6.3% |
| COc1cc(-c2nnc(-c3ccc(S(=O)(=O)c4ccccc4)cc3)o2)cc(OC)c1OC | -4.6% |
| CCN1CCN(S(=O)(=O)c2ccc(OC)c3ccccc23)CC1 | 17.2% |
| Cc1nnc(-c2ccccc2)c[n+]1[O-] | 3.2% |
| Cc1cccc(NC(=O)CNc2cc(C)ccc2C)c1 | -7.2% |
| Cc1c(C(=O)N2CCOCC2)c(S(=O)(=O)Nc2ccc(OC(F)(F)F)cc2)c(C)n1C | 2.7% |
| CN(CC(=O)Nc1cccc(F)c1)C(=O)c1cn(-c2ccccc2)nc1-c1ccccc1 | 23.7% |
| O=C(c1ccc(S(=O)(=O)N2CCCC2)cc1)N1CCCc2ccccc21 | -14.8% |
| CCO[C@H]1c2c(ccc3ccc(=O)oc23)OC(C)(C)[C@H]1O | -3.0% |
| O=C(OCC(=O)N1CCCCCC1)c1ccc(S(=O)(=O)N2CCOCC2)cc1 | 8.3% |
| CC12CCC(=O)N1C(C(=O)NNC(=O)COc1cccc(C(F)(F)F)c1)CS2 (stereo not drawn) | -15.9% |
| Cc1ccc(-n2nnc3c(=O)n(CC(=O)NCC4CCCO4)cnc32)cc1 (stereo not drawn) | 5.3% |
| COc1ccc(-c2csc(NC(=O)C3CSC4(C)CCC(=O)N34)n2)cc1OC (stereo not drawn) | -17.5% |
| CCC1(c2ccccc2)SC(=O)NC1=O (stereo not drawn) | -3.5% |
| Cc1cccc(NC(=O)CSCC(=O)NNC(=O)c2ccoc2C)c1 | -14.8% |
| CCn1nccc1C(=O)Nc1ccc(C)c(C)c1 | -11.7% |
| CNS(=O)(=O)c1cccc(C(=O)OCC(=O)Nc2cc(F)ccc2F)c1 | 3.0% |
| CCOC(=O)c1nnc2cc(C)nn2c1C | 8.8% |
| COc1ccc(OCc2nc3ccccc3n2C(C)c2ccccc2)cc1 (stereo not drawn) | -21.9% |
| COC(=O)CN(C)C(=O)c1ccccc1OC1CCN(S(C)(=O)=O)CC1 | 2.6% |
| COc1ccc(C(=O)N/C(=C/c2cccc3ccccc23)C(=O)NCCc2c[nH]c3ccccc23)cc1OC | -17.0% |
| CCN1C(=O)[C@H]2[C@H]3CN=C(SCc4ccccc4)N3[C@@](Cc3ccccc3)(C(=O)OC)[C@H]2C1=O | -14.3% |
| COc1ccccc1NC(=O)CCN1CCN(c2ccc(Cl)cc2)CC1 | -13.4% |
| CC(C)(C)OC(=O)N(CCc1ccccc1)Cc1ccc(OCc2cccc(NC(=O)c3ccccc3)c2)cc1 | 2.4% |
| Fc1ccc(CSc2nsc(SCc3ccc(F)cc3)n2)cc1 | -4.5% |
| COCCNC(=O)CSc1nc(-c2ccccc2)[nH]c1-c1ccc(OC)cc1 | -18.9% |
| CCc1ccccc1NC(=S)N(CCCN1CCOCC1)Cc1cccs1 | -8.5% |

5 structures out of the list, arranged by molecular weight, low to high:
| Molecule | VDR inhibitor |
| --- | --- |
| CCOC(=O)c1nnc2cc(C)nn2c1C | 8.8% |
| Fc1ccc(CSc2nsc(SCc3ccc(F)cc3)n2)cc1 | -4.5% |
| COC(=O)CN(C)C(=O)c1ccccc1OC1CCN(S(C)(=O)=O)CC1 | 2.6% |
| CCc1ccccc1NC(=S)N(CCCN1CCOCC1)Cc1cccs1 | -8.5% |
| CCN1C(=O)[C@H]2[C@H]3CN=C(SCc4ccccc4)N3[C@@](Cc3ccccc3)(C(=O)OC)[C@H]2C1=O | -14.3% |

Next section:
| Molecule | VDR inhibitor |
| --- | --- |
| CC(C)c1onc(C(=O)N(C)C2CCCCC2)c1[N+](=O)[O-] | -8.6% |
| C=CCSc1nnc(-c2ccccc2N=Cc2c(C)[nH]n(-c3ccccc3)c2=O)c(=O)[nH]1 | 8.5% |
| O=C(CCCCCn1c(=O)[nH]c2ccsc2c1=O)N1CCN(C2CCCCC2)CC1 | 6.5% |
| Cc1ccc2oc(=O)n(CC(=O)O)c2c1 | -25.6% |
| Cc1nnc(N/N=C/c2ccco2)n1N | -13.3% |
| O=C(CCC(=O)N(CC(=O)NC1CCCC1)c1ccccc1F)Nc1nccs1 | 1.2% |
| CS(=O)(=O)NCCSCc1c(F)cccc1Cl | -4.8% |
| CN(C)C(=S)Nc1ccc2c(c1)OCO2 | -7.5% |
| COc1ccccc1/C=N/NC(=O)c1ccc(Br)cc1 | 2.2% |
| C=CCOc1ccccc1CNCCNC(=O)c1nonc1N | -4.5% |
| CC1CC(C)CN(CCCNC(=O)c2cc3c(=O)[nH]c4ccccc4c3n2C)C1 (stereo not drawn) | 2.9% |
| Cc1cccc(Nc2nc(N3CCCCC3)nc(N3CCCCC3)n2)c1 | -5.7% |
| CCOC(=O)C1=CN(Cc2cccc(F)c2)S(=O)(=O)NC1c1ccc(F)c(Cl)c1 (stereo not drawn) | 0.4% |
| COc1cc(O)c(C(CCN2CCN(c3ccccc3)CC2)c2ccc3c(c2)OCO3)c(OC)c1 (stereo not drawn) | -8.9%&-7.4% |
| Cc1cc(C)cc(OCC(=O)N2N=C(c3cccnc3)CC2(O)C(F)(F)F)c1 (stereo not drawn) | -23.6% |
| O=C(O)c1cccc(N2C(=O)CSC2c2c(F)cccc2Cl)c1 (stereo not drawn) | -0.3% |
| O=C(Nc1ccc(Cl)cn1)C1COc2ccccc2O1 (stereo not drawn) | -6.1% |
| O=C(Nc1nnc(SCCN2CCOCC2)s1)C1CC(=O)N(c2ccc(F)cc2)C1 (stereo not drawn) | -12.9% |

These rows are one share of the data. The share of hits here may be higher or lower than overall.
